# Screening data from PubChem.
# H5N1 antiviral: MDCK cell protection from H5N1 avian flu. inhibition, % at 50 µM. 96,000 compounds, 0.07% hits. cytopathic effect, luminescence, 72 h; active compounds read high; no value below 0 was filed and about half of the inactive calls have no number; reference of the scale not given here; in the data active means inhibition above about 25%
# Active calls of the source: *; i = inactive.
Compound	H5N1 antiviral
Nc1ccccc1Nc1ccncc1[N+](=O)[O-]	i
CCOc1cc(/C=N/n2cnnc2)ccc1OCC(=O)Nc1ccccc1OC	i
CCc1ccc(N2C(=O)c3sc4nnc(C)c(=O)n4c3C2=O)cc1	0.8
Cc1ccc(NC(=O)N(Cc2cc3cc(C)cc(C)c3[nH]c2=O)CC2COCCO2)cc1 (configuration not stated)	0.9
O=C(OCc1ccc(F)cc1)c1ccc2c(c1)-c1ccccc1C2=O	0.7
CC(C)(C)OC(=O)Cn1c(=O)cnc2ccccc21	2.4
O=C(Nc1cc(C(F)(F)F)ccc1N1CCOCC1)c1cccnc1	i
CCCCOC(=O)C1CCCC(C)N1 (configuration not stated)	i

# The results go on:
Compound	H5N1 antiviral
COc1ccccc1Nc1nc2c(C)cccc2cc1C#N	0.5
CCN(Cc1ccncc1)C(=O)C1CCN(S(=O)(=O)c2cccs2)CC1	0.9
COc1ccc(C2=NOC(C(=O)NCCN3CCOCC3)C2)cc1 (configuration not stated)	i
CCOc1ccc2cc(C#N)c(SCC(=O)OC)nc2c1	i
O=C(NCc1ccco1)c1ccc2c(c1)C(=O)c1ccccc1-2	0.7
CC(C)Nc1nc(NC(C)C)nc(OCCOC(=O)Nc2ccccc2)n1	i
O=C1c2ccccc2C(O)N1CCN1CCOCC1 (configuration not stated)	i
O=S(N1CCCCCC1)C12CC3CC(CC(C3)C1)C2 (configuration not stated)	2.4

# (cont.)
Compound	H5N1 antiviral
COc1ccc(C(c2nnnn2CC2CCCO2)N2CCN(c3ccc(F)cc3)CC2)cc1 (configuration not stated)	0.0
C=C(C)CSc1nnc([C@@H](N)Cc2c[nH]c3ccccc23)o1	i
CC1(C)CC(=O)NC=C(c2ccccc2)C1	i
O=C(NCc1cccs1)c1cc2c(s1)CCCC2	1.7
CS(=O)(=O)NCc1nnc(SCc2ccccc2C(F)(F)F)o1	i
CC(C)C(=O)Nc1cccc(NC(=O)c2cccnc2)c1	0.3
O=C(CCN1C(=O)c2ccccc2C1=O)Nc1ccc(-c2nc3ccccc3o2)cc1	0.4
COc1ccc(NC(=O)c2sc(SC)nc2N)cc1	i

# Next part:
Compound	H5N1 antiviral
S=c1[nH]nc(-c2ccco2)n1/N=C/C=C/c1ccccc1	i
CCn1nnnc1-c1ccc(OC)c(S(=O)(=O)Nc2ccc(C(=O)OC)cc2)c1	0.6
O=C(COC(=O)c1ccc(NS(=O)(=O)c2ccc3c(c2)OCCO3)cc1)NCC1CCCO1 (configuration not stated)	i
COc1ccc(CCN2CC(C(=O)O)CC2=O)cc1OC (configuration not stated)	i
COc1ccc(NC(=O)Nc2nnc(-c3ccccc3SCc3ccccc3)s2)cc1	i
CCS(=O)(=O)Nc1ccc(Cc2ccncc2)cc1	0.3
CCc1ccc2oc(-c3cc(N)ccc3O)nc2c1	i
O=S1(=O)CC(O)C(Nc2ccccc2)C1 (configuration not stated)	0.7

# The results go on:
Compound	H5N1 antiviral
CCOC(=O)C1CCCN(C(=O)C2CCN(S(=O)(=O)CC)CC2)C1 (configuration not stated)	i
Cc1cc(C)c2c(-n3cccc3)c(C(=O)NNS(=O)(=O)c3ccc(F)cc3)sc2n1	0.4
CN(C)c1ccc(C2N(c3ccc(Cl)cc3)C(=O)C3CCCN32)cc1 (configuration not stated)	i
COc1ccc(NS(=O)(=O)c2ccc(-n3nnc4ccccc43)c([N+](=O)[O-])c2)cc1	0.3
COc1ccc2[nH]c(C)c(C(=O)CN(C)C)c2c1	0.8
O=C(CCCC(=O)N(CC(=O)NC1CCCCC1)Cc1ccc2c(c1)OCO2)Nc1ccccn1	i
Nc1nc(Cn2nnc(-c3ccccc3F)n2)nc(N2CCOCC2)n1	0.8
COc1cc(OC)cc(-n2nnnc2SCC(=O)NCc2ccc3c(c2)OCO3)c1	i

# More structures
Compound	H5N1 antiviral
Cn1c(-c2ccccc2)cnc1SCC(N)=O	0.8
COc1ccc(CNC(=S)N/N=C/c2ccc(OC)c(OC)c2)cc1	i
O=C(O)CCSc1ccc2ccccc2n1	i
COc1ccc(C(=O)N2CCCC(c3nc(-c4cc(OC)c(OC)c(OC)c4)no3)C2)cc1 (configuration not stated)	i
Cc1ccc(C(C#N)N2CCOCC2)cc1 (configuration not stated)	i
CCOC(=O)C1CCCN(C(=O)c2cc3nc(-c4cccc(OC)c4)cc(C(F)(F)F)n3n2)C1 (configuration not stated)	0.6
O=C(OC(C(=O)NCC1CCCO1)c1ccc(F)cc1)c1cccs1 (configuration not stated)	i
COc1ccc(CNC(=O)COC(=O)c2cnccn2)cc1	i

# (listing goes on)
Compound	H5N1 antiviral
O=C(NCc1cccnc1)Nc1ccc(F)cc1F	0.1
COc1ccc(S(=O)(=O)N2CCC(C(=O)c3ccc4c(c3)OCCO4)CC2)cc1	i
CN=C(Nc1ccc(C(=O)OC)cc1)SC1CC(=O)N(c2ccccc2F)C1=O (configuration not stated)	i
CC1(C(=O)NC2CCCC2)CCC(=O)N1CCC1=CCCCC1 (configuration not stated)	1.1
Cc1cc(=O)[nH]c(SCC(=O)Nc2nnc(CC(C)C)s2)n1	0.3
O=C(NCc1cccs1)c1ccncc1	i
O=C(NCc1ccccc1)C(c1ccncc1)N(C(=O)c1csnn1)C1CC1 (configuration not stated)	0.2
Cc1ccc(C(=O)Cn2nnc3c(sc4nc5c(c(-c6ccccc6)c43)CCC5)c2=O)cc1	i

# Remaining list, next part.
Compound	H5N1 antiviral
CCCN(CCC)C(=O)C1c2ccccc2Oc2ccccc21	i
C=CCNc1nc2c(c(=O)n(C)c(=O)n2C)n1Cc1ccc(F)cc1	1.2
O=C1c2cccnc2C(Nc2ccc(S(=O)(=O)N3CCCCC3)cc2)N1Cc1ccccc1 (configuration not stated)	i
CCNC(=O)CC1C(=O)N(c2ccccc2)C(=O)N1Cc1ccc(OC)cc1 (configuration not stated)	0.6
O=C(O)c1ccc(COc2c(F)c(F)cc(F)c2F)cc1	i
COc1cccc(-c2cc(C(F)(F)F)n3ncc(C(=O)NCC4CCCO4)c3n2)c1 (configuration not stated)	2.1
CCCNC(=O)C(Cc1ccccc1)NS(=O)(=O)c1cccc2nsnc12 (configuration not stated)	0.8
Cc1nc(NC(=O)c2ccccc2)sc1-c1csc(NCc2ccccc2)n1	i

# (continued)
Compound	H5N1 antiviral
CC(=O)c1cc(F)c(N2CCN(C(=O)C(C)(C)C)CC2)cc1C	i
O=C1CC(N2CCN(c3ccccc3Cl)CC2)C(=O)N1c1cccc(F)c1 (configuration not stated)	i
CCC(C)C(NC(=O)OC(C)(C)C)C(=O)NCc1ccco1 (configuration not stated)	0.3
O=C(/C=C/c1ccccc1)NC(=S)Nc1cccnc1	0.9
CC(C)n1nnnc1SCC(=O)NCCc1ccccc1	i
CCN(C1CCCCC1)S(=O)(=O)c1ccc(S(=O)(=O)NCCc2ccncc2)cc1	1.4
Cc1ccc(S(=O)(=O)N2CCN(c3nc(C)c4c(c3C#N)CC(C)(C)OC4)CC2)cc1	1.3
COc1ccc(-c2cc(=O)[nH]c(=O)[nH]2)cc1	0.9

# Five successive entries from above, for reference:
Compound	H5N1 antiviral
O=C(/C=C/c1ccccc1)NC(=S)Nc1cccnc1	0.9
CC(C)n1nnnc1SCC(=O)NCCc1ccccc1	i
CCN(C1CCCCC1)S(=O)(=O)c1ccc(S(=O)(=O)NCCc2ccncc2)cc1	1.4
Cc1ccc(S(=O)(=O)N2CCN(c3nc(C)c4c(c3C#N)CC(C)(C)OC4)CC2)cc1	1.3
COc1ccc(-c2cc(=O)[nH]c(=O)[nH]2)cc1	0.9

# Going on with the list.
Compound	H5N1 antiviral
COc1ccc(C2c3c(oc4ccccc4c3=O)C(=O)N2c2ccccn2)cc1 (configuration not stated)	i
CCCC(=O)Nc1cccc(Oc2nc(C)cc(C)c2C#N)c1	1.1
O=C(Nc1ccc(F)cc1F)NC1CC(=O)N(Cc2ccccc2)C1 (configuration not stated)	i
CCOC(=O)N1CCC(NC(=O)CSCc2nc(-c3ccc(OC)c(OC)c3)oc2C)CC1	1.4
Cn1cc(CN2CCc3ccccc3C2)c2ccccc21	0.5
CCOC(=O)N/N=C/c1ccc(F)cc1	0.1
O=C1CSC(c2ccc3c(c2)OCO3)N1c1ccc(Oc2ccccc2)cc1 (configuration not stated)	1.8
Cc1ccc(NC(=O)C2CCN(C(=O)NC3CCCCC3)CC2)cc1Cl	0.5

# Further results follow.
Compound	H5N1 antiviral
CCN(CC)c1cccc(OCC(=O)N(C)CCC#N)c1	i
CCCNC(=O)c1cc(C)no1	0.9
CCOC(=O)C1CCCN(CCC(=O)Nc2c(C(=O)OC)[nH]c3cc(OC)ccc23)C1 (configuration not stated)	0.5
COC(=O)Cc1ccc(NC(=O)c2ccc(C)c(C)c2)cc1	i
CCOC(=O)COc1ncn(-c2ccccc2)n1	i
CCCCCCCCC(=O)N/N=C/c1cccc(Br)c1	i
Cc1ccc(OCCn2nc3ccccc3n2)c(C)c1	i
Cc1cc2c(cc(C(=O)OCC(=O)NCc3cccs3)n2C(C)C)o1	1.3

# Continued.
Compound	H5N1 antiviral
CN(C)/C=C1\C(=O)N(c2ccc([N+](=O)[O-])cc2)N=C1c1ccccc1	0.8
Cc1ccc(Nc2nc(C(=O)N3CCC(C(=O)NCCN4CCOCC4)CC3)cs2)cc1	i
COC(=O)c1c(NC(=O)C2CC=CCC2C(=O)O)sc(C)c1C (configuration not stated)	i
Cc1c(C(=O)Nc2ccc(F)c(F)c2)oc2ccc(S(=O)(=O)N3CCCCC3)cc12	i
O=C(CSc1ccc(Cl)cc1)N1CCOCC1	0.5
COC(=O)Cc1c(C)nc2nc(-c3cccnc3)[nH]n2c1=O	i
O=C(Cn1cccc1)Nc1ccc(F)cc1F	i
Cc1ccc(C(=O)Cn2c(NCCO)nc3ccccc32)cc1	i

# Quoted at random: 3 entries already listed
Compound	H5N1 antiviral
Cc1c(C(=O)Nc2ccc(F)c(F)c2)oc2ccc(S(=O)(=O)N3CCCCC3)cc12	i
O=C(CSc1ccc(Cl)cc1)N1CCOCC1	0.5
O=C(Cn1cccc1)Nc1ccc(F)cc1F	i

# Continuation:
Compound	H5N1 antiviral
CCOC(=O)C(C)Oc1cc(C)cc2oc(=O)c3c(c12)CCCC3 (configuration not stated)	2.1
Cc1c(C(=O)NCC2CCCO2)oc2ccc3c(c12)C(=O)CC(C)(C)O3 (configuration not stated)	1.1
CCCCNC(=O)CSc1nccn1Cc1ccccc1	1.1
CC1CN(S(=O)(=O)N(C)C)CCN1S(=O)(=O)N(C)C (configuration not stated)	i
CC(=O)c1cccc(NC(=O)COc2ccccc2)c1	i
CNc1nc(Nc2ccc(C(C)=O)cc2)nc(OC(C(F)(F)F)C(F)(F)F)n1	i
CC(C)Cn1cnc2c1c(=O)n(CC(=O)Nc1ccc3c(c1)OCO3)c(=O)n2Cc1ccccc1	i
Cc1nn2c(-c3ccccc3)c(-c3ccccc3)nc2[nH]c1=O	1.2

# More entries
Compound	H5N1 antiviral
COc1cccc(NC(=O)Cn2cc3c(n2)CCCCC3)c1	i
COCON1C(=O)CN(C(C)=O)C1c1ccc(Cl)cc1Cl (configuration not stated)	i
Cc1ccc(N/C(CSC(N)=O)=N/S(=O)(=O)c2ccccc2)cc1	i
CC(C)(C)c1csc(NC(=O)CSc2nc3ccccc3c(=O)[nH]2)n1	1.2
COc1ccc(NC(=O)NS(=O)(=O)c2ccc(C)cc2)c(OC)c1	1.0
CS(=O)(=O)N1CCN(C(=O)C(Sc2ccccc2)c2ccccc2)CC1 (configuration not stated)	0.1
CC(c1ccco1)N(C(=O)COc1ccc(Cl)cc1Cl)c1ccccn1 (configuration not stated)	39.3*
Cc1cc2c3c(c1)C1(C(=O)N3C(C)(C)CC2C)C(C#N)=C(N)Oc2n[nH]c(C)c21 (configuration not stated)	0.4

# Following part.
Compound	H5N1 antiviral
N#Cc1nc(COc2ccccc2F)oc1NCCc1ccccc1	i
CC(=O)c1cccc(NC(=O)c2cnn3ccccc23)c1	4.5
Cc1nc(CN2CCN(C(=O)NC3(c4ccccc4)CC3)CC2)cs1	1.2
CSCC[C@H](NC(=O)OC(C)(C)C)C(=O)N/N=C/c1c(C)[nH]c(=O)[nH]c1=O	i
COc1ccc(Cl)cc1NC(=O)CN(C1CCCCC1)S(C)(=O)=O	1.5
O=C(COC(=O)c1cccs1)NCc1ccccc1	i
Cc1ccc(NC(=O)CN(C)S(=O)(=O)c2cccs2)cc1C	i
CCn1cc(/C=C(/C#N)S(=O)(=O)c2ccccc2)cn1	i

# Continued:
Compound	H5N1 antiviral
Fc1ccc(CN2CCCCCCC2)cc1F	0.4
Cc1ccc(S(=O)(=O)NCC(=O)NC2CCCCCC2)cc1	i
O=C(CSC1=NCCS1)Nc1ccc(S(=O)(=O)NC2CCCCC2)cc1	i
CCOC(=O)c1cccc(NS(=O)(=O)c2ccc(NC(C)=O)cc2)c1	i
CSc1nncc(/C(C)=N\Nc2ccccc2C)n1	i
CCn1cc(C(=O)N[C@H](C)c2ccccc2)c(=O)c2cc(F)c(N3CCN(C)CC3)cc21	i
O=C(NCC1COc2ccccc2O1)c1ccc(Cl)cc1 (configuration not stated)	i
COc1ccc(Oc2c(-c3ccc(O)cc3O)n[nH]c2C)cc1	i

# (listing goes on)
Compound	H5N1 antiviral
O=C(O)CCCC(=O)Nc1ccc(Cl)c(Cl)c1	0.6
CN(CCC#N)C(=O)COC(=O)c1ccc(Cl)c(S(N)(=O)=O)c1	0.6
CCOC(=O)c1cc(-c2cccs2)nc2onc(C)c12	0.1
O=C(NCc1cccnc1)C1CCCN(S(=O)(=O)c2ccccc2)C1 (configuration not stated)	1.9
COc1ccc(Cl)cc1S(=O)(=O)n1cnc2ccccc21	0.5
CCOC(=O)C1=C(C)Nc2nnnn2C1c1cccnc1 (configuration not stated)	0.1
CCOC(=O)C(C(=O)OCC)C(=O)c1cc(OC)c(OC)c(OC)c1	i
O=C(NNC(=O)c1ccc(O)cc1O)c1ccc(Cl)cc1	3.8

# Individual results from above:
# CCOC(=O)c1cc(-c2cccs2)nc2onc(C)c12 – H5N1 antiviral: 0.1
# O=C(O)CCCC(=O)Nc1ccc(Cl)c(Cl)c1 – H5N1 antiviral: 0.6
# CCOC(=O)C1=C(C)Nc2nnnn2C1c1cccnc1 (configuration not stated) – H5N1 antiviral: 0.1
# COc1ccc(Cl)cc1S(=O)(=O)n1cnc2ccccc21 – H5N1 antiviral: 0.5
# O=C(NNC(=O)c1ccc(O)cc1O)c1ccc(Cl)cc1 – H5N1 antiviral: 3.8

# Not all compounds are listed (hit frequency here may not be typical).
